# Source: PubChem BioAssay (Broad Institute)
# Vaccinia inh = blocks a specific stage of Vaccinia orthopoxvirus infection, primary screen, cell-based, single point; actives 0.01% (n = 89,000); Vaccinia-infected cells, mCherry/Venus stage reporter fluorescence; stronger effect = lower value; some inactives read as strong as hits; AID 1053133, 2014; activity change (mCherry), % (concentration not given with the values);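 active = mCherry past -33% and 40 or more points under the early reporter, replicates agreeing; inconclusive = past -33% without that gap or agreement; tested in A549 cells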;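 also: scaled between vehicle wells and reference inhibitor wells; 23 nL library stock went into each well; one replicate is shown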
# Vaccinia inh Venus = second read-out of Vaccinia inh, no call of its own (marks repeat the call); activity change (Venus), %; measured here: Venus reporter, other viral stage;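 negative = less Venus signal; first of two replicates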
# Numbers without * were called inactive; ? = inconclusive; / = no result given; & = joins results of further samples. Not all compounds are listed, so the mix of outcomes need not match the whole.
# Results follow in this order: Vaccinia inh | Vaccinia inh Venus
CO[C@@H]1CN(C)C(=O)c2ccc(NC(=O)Nc3ccccc3)cc2OC[C@@H](C)N(CC2CC2)C[C@@H]1C
    0 | 6
COCC#Cc1cnc2c(c1)C(=O)N([C@@H](C)CO)C[C@H](C)[C@H](CN(C)C(=O)c1cnccn1)O2
    5 | -2
C[C@@H]1CN([C@@H](C)CO)C(=O)Cc2cc(NC(=O)Nc3ccc(C(F)(F)F)cc3)ccc2O[C@H]1CN(C)Cc1ccc2c(c1)OCO2
    ? | /
C/C=C/c1ccc2c(c1)O[C@H](CN(C)C(=O)COC)[C@H](C)CN([C@H](C)CO)S2(=O)=O
    5 | -2
C[C@H](NC(=O)C[C@@H]1CC[C@H](NC(=O)Cc2ccccn2)[C@@H](CO)O1)c1ccccc1
    0 | 6
CCC(=O)N[C@@H]1C=C[C@@H](CC(=O)NCc2ccccc2F)O[C@@H]1CO
    -8 | -7
COc1ccc2c3c(n(C)c2c1)[C@@H](CO)N(C(C)=O)CC31CCN(Cc2ccccc2OC)CC1
    -20 | -17
C[C@@H]1CN([C@@H](C)CO)C(=O)c2c(c3ccccc3n2C)-c2ccccc2CO[C@H]1CN(C)S(=O)(=O)c1ccc(Cl)cc1
    -25 | -9
C[C@@H]1CCCCO[C@H](CN(C)CC2CCCCC2)[C@@H](C)CN([C@H](C)CO)C(=O)c2cc(NC(=O)Nc3cccc4ccccc34)ccc2O1
    -7 | -6
C[C@H]1CN([C@@H](C)CO)C(=O)Cc2cc(NC(=O)CCC(F)(F)F)ccc2O[C@H]1CN(C)Cc1ccc(C(=O)Nc2ccccc2N)cc1
    ? | /
C[C@@H]1CN([C@H](C)CO)C(=O)c2cccc(NC(=O)Nc3ccccc3)c2O[C@H]1CN(C)S(=O)(=O)c1ccccc1
    -1 | -8
CC(=O)N(C)C[C@H]1Oc2ncc(C#Cc3cccc(F)c3)cc2C(=O)N([C@H](C)CO)C[C@H]1C
    14 | 6
COc1ccc(S(=O)(=O)Nc2ccc3c(c2)C(=O)N([C@@H](C)CO)C[C@@H](C)[C@@H](CN(C)C(=O)NC2CCCCC2)O3)cc1
    20 | 7
C[C@@H]1CCCCO[C@H](CN(C)Cc2ccncc2)[C@H](C)CN([C@H](C)CO)C(=O)c2cc(NC(=O)Nc3ccccc3)ccc2O1
    -15 | -12
COc1cccc(CNC(=O)c2cc3c(c(-c4cccc(-c5ccncc5)c4)n2)[C@@H](CCO)N([S@](=O)C(C)(C)C)C3)c1
    -6 | 16
O=C(N[C@@H]1C=C[C@@H](CC(=O)N2CCOCC2)O[C@H]1CO)c1cccc(F)c1
    4 | -1
C[C@@H]1CN([C@H](C)CO)C(=O)c2ccccc2-c2ccccc2CO[C@H]1CN(C)S(=O)(=O)c1ccc(Cl)cc1
    -18 | -20
COc1cccc(NC(=O)N2CC(=O)N3[C@@H](CO)[C@H](c4ccc(C#CCC5CCCC5)cc4)[C@@H]3C2)c1
    ? | /
CCC(=O)N1C[C@@H](C)[C@@H](OC)CN(C)C(=O)c2cc(NC(=O)Nc3ccc(Cl)cc3)ccc2OC[C@@H]1C
    3 | 2
COc1ccc2c3c(n(C)c2c1)[C@H](CO)N(C(=O)C1CCC1)CC31CN(C)C1
    -8 | -6
C[C@@H]1CN([C@@H](C)CO)C(=O)c2cc(NC(=O)Cn3cnnn3)ccc2O[C@H]1CN(C)S(=O)(=O)c1ccc(Cl)cc1
    1 | 1
C[C@H](CO)N1C[C@H](C)[C@@H](CN(C)Cc2cccnc2)Oc2cc(C#C[C@@H](C)O)ccc2S1(=O)=O
    4 | -3
N#Cc1cccc(-c2ccc3c(c2)[C@H]2[C@H](CCN2S(=O)(=O)c2ccccc2)[C@@H](CO)N3)c1
    -31 | -22
O=C(c1cccnc1)N1CC(=O)N2[C@@H](CO)[C@H](c3ccc(C#CCC4CCCC4)cc3)[C@@H]2C1
    -34 | -55
COc1ccc(NC(=O)N(C)C[C@@H]2Oc3cc(-c4ccc(C)cc4)ccc3S(=O)(=O)N([C@H](C)CO)C[C@@H]2C)cc1
    ? | /
COc1ccc(NC(=O)N(C)C[C@H]2OCCCC[C@H](C)Oc3ccc(NC(=O)c4ccccc4)cc3C(=O)N([C@H](C)CO)C[C@H]2C)cc1
    2 | 3
CCCC#Cc1ccc2c(c1)O[C@H](CN(C)C(=O)c1ccccc1)[C@H](C)CN([C@H](C)CO)S2(=O)=O
    -20 | -28
O=C(c1ccc2c(c1)OCO2)N1CCCCN2[C@H](C1)[C@@H](c1ccc(-c3ccccc3)cc1)[C@@H]2CO
    ? | /
O=C(Nc1ccc2c(c1)OCO2)N[C@@H]1CC[C@@H](CCNC(=O)C2CCC2)O[C@H]1CO
    -2 | 9
COc1ccc(NC(=O)Nc2ccc3c(c2)C(=O)N([C@@H](C)CO)C[C@@H](C)[C@H](CN(C)S(C)(=O)=O)O3)cc1
    5 | 6
O=C(NCC[C@H]1CC[C@@H](NS(=O)(=O)c2ccccc2)[C@H](CO)O1)c1ccc2c(c1)OCO2
    -2 | 5
O=C(N[C@H]1CC[C@H](CCNS(=O)(=O)c2cccc(Cl)c2)O[C@@H]1CO)c1ccccc1
    -6 | -3
C[C@@H]1CN([C@H](C)CO)C(=O)c2cccc(NC(=O)NC3CCCCC3)c2O[C@@H]1CN(C)S(=O)(=O)c1cccs1
    -6 | -5
COc1ccc(NC(=O)N(C)C[C@@H]2Oc3ccc(NC(=O)NC4CCCCC4)cc3C(=O)N([C@@H](C)CO)C[C@@H]2C)cc1
    9 | 14
C[C@H](CO)N1C[C@H](C)[C@@H](CN(C)C(=O)NC2CCCCC2)Oc2ccc(NC(=O)C3CCCCC3)cc2CC1=O
    1 | -1
CCCNC(=O)N1CCC2(CC1)CN(S(C)(=O)=O)[C@H](CO)c1c2c2ccc(OC)cc2n1C
    3 | 5
CCCN1C[C@@H](C)[C@@H](OC)CN(C)C(=O)c2cc(NC(=O)Nc3c(C)noc3C)ccc2OC[C@@H]1C
    7 | 6
O=S(=O)(Cc1ccccc1)NCC[C@H]1CC[C@@H](NS(=O)(=O)c2ccc(F)cc2)[C@@H](CO)O1
    -3 | 5
CC(C)NC(=O)N(C)C[C@H]1Oc2ccc(NC(=O)Nc3ccc(C(F)(F)F)cc3)cc2C(=O)N([C@@H](C)CO)C[C@@H]1C
    0 | 15
C[C@H]1CN([C@@H](C)CO)C(=O)c2cc(NC(=O)Nc3ccccc3)ccc2O[C@H]1CN(C)CC1CCCCC1
    6 | 4

# Structural class: the compounds so far containing two or more sulfur atoms (2)
# Results follow in this order: Vaccinia inh | Vaccinia inh Venus
C[C@@H]1CN([C@H](C)CO)C(=O)c2cccc(NC(=O)NC3CCCCC3)c2O[C@@H]1CN(C)S(=O)(=O)c1cccs1
    -6 | -5
O=S(=O)(Cc1ccccc1)NCC[C@H]1CC[C@@H](NS(=O)(=O)c2ccc(F)cc2)[C@@H](CO)O1
    -3 | 5

# The list continues.
# Results follow in this order: Vaccinia inh | Vaccinia inh Venus
N#C[C@H]1[C@@H](c2ccccc2-c2ccccc2F)[C@@H](CO)N1C(=O)C1CCOCC1
    -14 | -5
CCCNC(=O)N1C[C@H]2[C@@H](c3ccccc31)[C@H](CO)N2Cc1ccccc1F
    11 | 6
COC(=O)C[C@H]1C=C[C@H](NC(=O)Nc2ccc(C(F)(F)F)cc2)[C@@H](CO)O1
    -3 | 5
CC(C)NC(=O)N(C)C[C@@H]1Oc2ccc(NC(=O)c3ccncc3)cc2C(=O)N([C@@H](C)CO)C[C@H]1C
    9 | 2
COc1cccc(S(=O)(=O)N[C@@H]2CC[C@@H](CC(=O)NCc3ccccc3)O[C@@H]2CO)c1
    7 | 4
COc1ccc(NC(=O)Nc2ccc3c(c2)C(=O)N([C@H](C)CO)C[C@H](C)[C@@H](CN(C)S(=O)(=O)c2ccc(Cl)cc2)O3)cc1
    1 | 0
C[C@@H]1CCCCO[C@@H](CN(C)S(=O)(=O)c2cn(C)cn2)[C@H](C)CN([C@@H](C)CO)C(=O)c2cc(NS(=O)(=O)c3ccc(Cl)cc3)ccc2O1
    -3 | 2
COc1ccc(S(=O)(=O)N(C)C[C@H]2Oc3ccc(NS(=O)(=O)c4ccc(F)cc4)cc3CC(=O)N([C@@H](C)CO)C[C@H]2C)cc1
    -7 | -8
C[C@@H]1CN([C@@H](C)CO)C(=O)c2cc(C3=CCCCC3)cnc2O[C@@H]1CN(C)C(=O)Cc1ccccc1
    -28 | -30
COCC(=O)N1CC(=O)N2[C@H](CO)[C@H](c3ccc(-c4ccccc4F)cc3)[C@@H]2C1
    -2 | -6
C[C@@H]1CN([C@H](C)CO)S(=O)(=O)c2ccc(-c3cccc(C#N)c3)cc2O[C@H]1CN(C)C(=O)c1cccnc1
    22 | 19
COc1ccc(NC(=O)Nc2cccc3c2O[C@H](CN(C)S(=O)(=O)c2cn(C)cn2)[C@H](C)CN([C@H](C)CO)C3=O)cc1
    -2 | 2
CO[C@H]1CN(C)C(=O)c2cc(NS(=O)(=O)c3ccc(C)cc3)ccc2OC[C@@H](C)N(C(=O)NC(C)C)C[C@H]1C
    9 | 9
C[C@@H]1CCCCO[C@H](CN(C)C(=O)Nc2cccc3ccccc23)[C@@H](C)CN([C@@H](C)CO)C(=O)c2cc(NC(=O)C3CCCCC3)ccc2O1
    -14 | -9
CO[C@H]1CN(C)C(=O)c2ccc(NC(=O)Nc3c(C)noc3C)cc2OC[C@H](C)NC[C@@H]1C
    8 | 4
C[C@@H]1CN([C@@H](C)CO)C(=O)Cc2cc(NS(=O)(=O)c3cccs3)ccc2O[C@H]1CN(C)C(=O)Nc1ccccc1
    11 | 12
COc1ccc(NC(=O)N(C)C[C@@H]2Oc3c(NC(=O)C4CCOCC4)cccc3C(=O)N([C@@H](C)CO)C[C@@H]2C)cc1
    11 | 14
O=C(NCC[C@H]1CC[C@@H](NC(=O)c2cnccn2)[C@H](CO)O1)Nc1ccc(F)cc1
    -4 | 1
Cc1noc(C)c1NC(=O)N(C)C[C@@H]1OCCCC[C@@H](C)Oc2ccc(NS(=O)(=O)c3ccc(Cl)cc3)cc2C(=O)N([C@H](C)CO)C[C@H]1C
    6 | -4
O=C(c1ccccn1)N1CC(=O)N2[C@H](CO)[C@H](c3ccc(C#CC4CCCC4)cc3)[C@H]2C1
    ? | /
O=S(=O)(c1cccc(Cl)c1)N1[C@@H]2CNC[C@H]1C2c1ccc(-c2cccnc2)cc1 (stereo not given in full)
    -3 | -7
CO[C@H](CN(C)C(=O)C1CC1)[C@H](C)CN(C(=O)Nc1ccc(C(F)(F)F)cc1)[C@H](C)CO
    -5 | -7
C[C@@H]1CN([C@@H](C)CO)C(=O)c2cc(C#Cc3ccccn3)cnc2O[C@H]1CN(C)C(=O)CCN1CCCCC1
    3 | -2
CO[C@@H]1CN(C)C(=O)c2cc(NC(=O)C3CCCC3)ccc2OC[C@@H](C)N(C(=O)c2ccccc2)C[C@H]1C
    2 | 1
CCCNC(=O)COc1ccc(C=O)cc1
    13 | 13
Cc1ccc(S(=O)(=O)N[C@@H]2CC[C@H](CCNC(=O)CN3CCOCC3)O[C@H]2CO)cc1
    1 | 2
O=C(N[C@@H]1CC[C@H](CCn2cc(C3CC3)nn2)O[C@H]1CO)c1cccnc1
    11 | 3
C[C@H](CO)N1C[C@H](C)[C@H](CN(C)Cc2ccc(Cl)c(Cl)c2)OCCCC[C@H](C)Oc2ccc(NS(C)(=O)=O)cc2C1=O
    ? | /
CCCNC(=O)C[C@H]1C[C@@H]2c3cc(NS(=O)(=O)c4cccc(OC)c4)ccc3O[C@@H]2[C@H](CO)O1
    0 | -3
C[C@@H]1CCCCO[C@H](CN(C)C(=O)C2CCCCC2)[C@H](C)CN([C@H](C)CO)C(=O)c2cc(NS(=O)(=O)c3ccc(Cl)cc3)ccc2O1
    ? | /
CNC(=O)C[C@H]1CC[C@@H]2[C@@H](COc3ccc(NC(=O)Nc4cccc(C)c4)cc3C(=O)N2C)O1
    18 | 12
Cc1noc(C)c1S(=O)(=O)Nc1ccc2c(c1)C(=O)N([C@H](C)CO)C[C@@H](C)[C@H](CN(C)S(=O)(=O)c1ccc(F)cc1)OCCCC[C@@H](C)O2
    ? | /
C[C@@H]1CN([C@H](C)CO)C(=O)c2cc(NS(C)(=O)=O)ccc2O[C@@H]1CN(C)S(=O)(=O)c1cccs1
    4 | 2
O=C(C[C@H]1C[C@@H]2c3cc(NC(=O)CC4CC4)ccc3O[C@@H]2[C@@H](CO)O1)NCc1ccccc1F
    -3 | 1
Cc1ccc(OC(=O)N(C)C[C@@H]2OCc3ccccc3-c3c(n(C)c4ccccc34)C(=O)N([C@@H](C)CO)C[C@H]2C)cc1
    ? | /
CC(C)(C)S(=O)N1Cc2cc(C(=O)NCc3ccc4c(c3)OCO4)nc(-c3cccc(C#CCC4CCCC4)c3)c2[C@@H]1CCO (stereo not given in full)
    -4 | 21
Cc1noc(C)c1NC(=O)Nc1ccc2c(c1)C(=O)N([C@@H](C)CO)C[C@H](C)[C@@H](CN(C)C(=O)Nc1ccc(F)cc1)OCCCC[C@@H](C)O2
    13 | 1
CC(=O)N(C)C[C@@H]1Oc2ncc(C#Cc3ccc(F)cc3)cc2C(=O)N([C@@H](C)CO)C[C@H]1C
    4&-2 | -4&-2
O=C(NCc1ccccc1Cl)[C@@H]1[C@@H](CO)[C@@H]2Cn3c(cccc3=O)[C@@H]2N1C(=O)C1CCC1
    5 | 5

# One compound at a time, from the list above:
# `CCCNC(=O)C[C@H]1C[C@@H]2c3cc(NS(=O)(=O)c4cccc(OC)c4)ccc3O[C@@H]2[C@H](CO)O1` is entered as Vaccinia inh = 0; Vaccinia inh Venus = -3
# `C[C@@H]1CN([C@H](C)CO)C(=O)c2cc(NS(C)(=O)=O)ccc2O[C@@H]1CN(C)S(=O)(=O)c1cccs1` is entered as Vaccinia inh = 4; Vaccinia inh Venus = 2
